LASV entry inh: qHTS for Inhibitors of binding or entry into cells for Lassa Virus | Lassa virus pseudotype entry inhibition, cell reporter; control for the full effect not named in the record | Potency, µM (series often up to 37.9 µM), without a hit: top-dose activity change, negative = inhibition, usual class: inhibitors | hit rate 1.2% among 300,000 | AID 540256, 2011; active means well fitted inhibition curve with a large enough effect; inconclusive means small, poorly fitted or top-dose-only effect, or effect the other way; inactive means flat fitted curve, though single readings scatter; tested in HEK293 cells; also: % is scaled to controls: 0 for no effect and ±100 for the full control effect; nearly all actives have a fitted effect of over 50% in size; luciferase read-out
Cruzain Triton: qHTS Assay for Promiscuous and Specific Inhibitors of Cruzain (with detergent). Cruzipain (Trypanosoma cruzi), P25779. purified cruzain, Z-FR-AMC fluorescence, 0.01% Triton. Potency, µM, inactives show max response, negative = inhibition, most hits filed as inhibitors. hit rate 0.43% among 200,000;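 also: plate controls were neutral wells for no effect and buffer without enzyme for full effect; nearly all actives have a fitted effect of over 40% in size; top concentration of the series not given in the record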
Target sequence (P25779 123-467 limits assumed): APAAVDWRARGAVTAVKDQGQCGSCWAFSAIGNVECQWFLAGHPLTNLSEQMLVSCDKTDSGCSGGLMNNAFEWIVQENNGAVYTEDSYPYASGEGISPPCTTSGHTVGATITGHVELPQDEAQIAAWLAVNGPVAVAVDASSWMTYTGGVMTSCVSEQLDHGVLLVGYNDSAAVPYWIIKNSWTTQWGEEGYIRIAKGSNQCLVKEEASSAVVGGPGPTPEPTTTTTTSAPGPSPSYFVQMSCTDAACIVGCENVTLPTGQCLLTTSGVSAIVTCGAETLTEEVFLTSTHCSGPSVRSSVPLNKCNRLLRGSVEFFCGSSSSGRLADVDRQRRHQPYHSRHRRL
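Z-FR-AMC hydrolysis (2 uM substrate) by cruzain (1.5 nM) monitored kinetically at ex 360/em 450 nm after 15 min room-temperature compound exposure; 0.01% Triton X-100, pH 5.5, 5 mM DTT.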
Marburg entry inh: qHTS for inhibitors of binding or entry into cells for Marburg Virus. Potency, µM (titrated, usually from 37.8 µM), for the others: at the highest dose activity change, negative = inhibition, most hits filed as inhibitors. hit rate 1.8% among 300,000. Marburg virus pseudotyped entry inhibition, cell reporter; control for the full effect not named in the record; about a third of the inactives were read at about 46 µM; active = well fitted inhibition curve with a large enough effect; inconclusive = small, poorly fitted or top-dose-only effect, or effect the other way; inactive = flat fitted curve, though single readings scatter; tested in HEK293 cells; about a fifth of its hits are not listed in these tables; also: % is scaled to controls: 0 for no effect and ±100 for the full control effect; luciferase read-out
Cruzain noTriton: qHTS Assay for Promiscuous and Specific Inhibitors of Cruzain (without detergent); hit rate 2.3% among 200,000; Potency, µM, for inactives: max response, negative = inhibition, most hits filed as inhibitors; purified cruzain, Z-FR-AMC fluorescence, no detergent; AID 1476, 2009; Cruzipain (Trypanosoma cruzi), P25779;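 also: plate controls were enzyme without inhibitor for no effect and buffer without enzyme for full effect; nearly all actives have a fitted effect of over 40% in size; top concentration of the series not given in the record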
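Purified cruzain at 1.5 nM, pre-incubated 15 min with compound at room temperature in 100 mM sodium acetate pH 5.5, 5 mM DTT, 0.00005% Triton X-100. Reaction started with 2 uM Z-FR-AMC; AMC fluorescence increase over 60 s gives rate.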
SARS PLpro yeast: qHTS of Yeast-based Assay for SARS-CoV PLP; hit rate 0.19% among 330,000; S. cerevisiae expressing SARS-CoV PLpro, growth rescue; control for the full effect not named in the record; AID 485353, 2010; Potency, µM (series often up to 32.9 µM), for the others: at the top dose activity, positive = growth rescue; active means well fitted rising curve with a large enough effect; inconclusive means small, poorly fitted or top-dose-only effect; inactive means no such curve, though single readings can be large or run the other way; also: 0% is about no effect; nearly all actives have a fitted effect of over 55% in size; growth read by luminescence after 48 h
2A StopGo: High Throughput Screening for Foot and Mouth Disease Virus Antivirals | human cells with a luciferase reporter of 2A StopGo recoding; control for the full effect not named in the record | Potency, µM (series often up to 57.9 µM), for the others: at the highest dose signal change, negative = less light | hit rate 1.2% among 410,000 | AID 1159524, 2015; active = well fitted falling curve with a large enough effect; inconclusive = small, poorly fitted or top-dose-only effect; inactive = no such curve, though single readings can be large or run the other way; tested in HEK293T cells; also: % is scaled to controls: 0 for no effect and ±100 for the full control effect; nearly all actives have a fitted effect of over 45% in size; luciferase light after 4 h
NS1 function inh: qHTS Assay for Inhibitors of Influenza NS1 Protein Function. S. cerevisiae slowed by influenza A NS1, growth recovery by OD600. Potency, µM (doses to about 46.1 µM), for the others: at the highest dose activity, positive = more growth. hit rate 0.4% among 270,000. AID 2326, 2010; active means well fitted rising curve with a large enough effect; inconclusive means small, poorly fitted or top-dose-only effect; inactive means no such curve, though single readings can be large or run the other way; also: nearly all actives have a fitted effect of over 50% in size
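OD600 was taken as the measure of yeast growth restored by compound in an NS1-expressing S. cerevisiae strain. Cells had been washed out of glucose medium and diluted 1:100 into galactose -URA medium, pH 6.0.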
RE007 growth inh: qHTS Assay for Inhibitors of the HIV-1 protein Vpr. S. pombe RE007 Vpr strain, BacTiter-Glo ATP luminescence, 24 h; control for the full effect not named in the record. Potency, µM (series often up to 92.2 µM), without a hit: at the top dose activity change, negative = less growth. hit rate 0.21% among 360,000; active = well fitted falling curve with a large enough effect; inconclusive = small, poorly fitted or top-dose-only effect; inactive = no such curve, though single readings can be large or run the other way;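 also: % is scaled to controls: 0 for no effect and ±100 for the full control effect; nearly all actives have a fitted effect of over 50% in size; the assay follows cell death caused by Vpr and the record does not say whether a fall means rescue or toxicity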
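Fission yeast strain RE007, carrying one chromosomally integrated HIV-1 vpr copy, was seeded at OD 0.01 in PMG+AL medium with 23 nL pinned compound. After 24 h at 30 °C and 99% humidity, viability was read by BacTiter-Glo luminescence.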
Starred values were filed as active, the others as inactive; ? = inconclusive; nt = no result given; & = joins results of further samples; [ ] = dose if it differs, or a comment. Unless noted, calls follow the shape of the dose curve; as a rule, active = well fitted curve in the direction sought with a large enough effect; inconclusive = small, poorly fitted or top-dose-only effect, or another doubt; inactive = no such curve, though single readings can be large; an effect the other way counts as inactive or inconclusive. Potency is read from the fitted curve at half-maximal effect.

SMILES	LASV entry inh	Cruzain Triton	Marburg entry inh	Cruzain noTriton	SARS PLpro yeast	2A StopGo	NS1 function inh	RE007 growth inh
CN(C)c1ccc(/C=C2\SC(=S)N(Nc3ncc(C(F)(F)F)cc3Cl)C2=O)cc1	10%	-9.3%	-4%&-4%	13µM*	2%	13%	9%	-4%
CC1CCN(C(=O)c2ccc(-c3ccccc3Cl)o2)CC1	?	nt	?	nt	2%	2%	nt	?
O=C(Cc1csc(Nc2nc(=S)[nH]c3ccccc23)n1)NCCCN1CCN(c2cccc(Cl)c2)CC1	-1%	nt	?	nt	23%	-21%	nt	-1%
CN(C(=O)COC(=O)C1CCN(S(=O)(=O)c2cccs2)CC1)C1CCS(=O)(=O)C1 (stereo not given)	6%	-1.1%	0%&0%	-1%	3%	-9%	-1%	-2%
Cc1noc(C)c1Cc1c(Cl)cccc1Cl	0%	-2.8%	-6%	11%	6%	-9%	7%	4%
Cc1cccc(NC(=S)NCc2ccc3c(c2)OCO3)c1	-6%	-2.2%	?	13%	22%	28%	-23%	4%
O=C(Nc1ccc2c(c1)OCCO2)c1ccc(Cl)cc1	nt	nt	nt	nt	-5%	-7%	-22%	4%
Cc1cc2nc(SCC(=O)Nc3ccccc3C(=O)O)[nH]c2cc1C	?	nt	25%[46.1 µM]	nt	4%	35%[activator]	nt	-2%
COc1ccc2nc(SCC(=O)Nc3ccc4c(c3)CCC4)[nH]c2c1	?	-25%	-35%	?	-4%	7%	7%	2%
O=C(CCC1CCCC1)NCCCN1CCOCC1	-2%	6.8%	11%	4%	0%	-3%	3%	-8%
Cc1cc(NC(=O)CCc2nc3cccnc3n2Cc2cccs2)ccc1Br	-1%[46.1 µM]	-10%	6%[46.1 µM]	-11%	nt	?	nt	nt
Cc1ccc(NS(=O)(=O)c2ccc3c(c2)NC(=O)CCS3)c(Cl)c1	?	nt	-39%[46.1 µM]	nt	1%	1%	11%	6%
O=C(O)CN1C(=O)NC2NC(=O)NC21 (stereo not given)	18%	5.0%	3%	-1%	-3%	16%	14%	3%
O=C(NC1=NCCS1)c1ccc([N+](=O)[O-])cc1Cl	?	nt	-8%[46.1 µM]	nt	0%	24%	nt	-4%
Cc1ccc(-n2cc(CN(C)CCc3cn[nH]c3)c(-c3cccc(C)c3)n2)cc1	0%	nt	7%[46.1 µM]	nt	1%	-18%	1%	30%
Cc1cc(C)cc(OCC(=O)OC(C)C(=O)Nc2c(C)n(C)n(-c3ccccc3)c2=O)c1 (stereo not given)	-1%[46.1 µM]	nt	29%	nt	2%	7%	nt	5%
Cc1nc(C)c(-c2nnc(-c3ccc(C(C)(C)C)cc3)o2)cc1C(=O)NN	?	-6.7%	?	?	15%	-23%	10µM*	3%
CN(C(=S)NC(=O)c1ccc(Cl)cc1)C1CCCCC1	-1%[46.1 µM]	nt	14%[46.1 µM]	nt	-3%	7%	3%	10%
O=C(NCc1ccc(F)cc1)c1cc2c(s1)CS(=O)(=O)C2	nt	nt	nt	nt	8%	-4%	19%	-1%
O=C(Nn1c(-c2ccc(Cl)cc2)nc2ccccc2c1=O)c1cccnc1Cl	1%	-3.4%	3%	3%	-12%	-2%	-10%	0%
O=C1Cc2cc(O)ccc2O1	-8%[46.1 µM]	nt	12%[46.1 µM]	nt	nt	2%	nt	27%
Cc1ccc(N(CC(=O)N/N=C/c2cc(C)n(-c3ccccc3C)c2C)S(C)(=O)=O)cc1	?	-2.9%	-9%	12%	2%	-22%	-13%	8%
CC(=O)NC(Cc1ccc(F)cc1)C(=O)NC1CCN(S(=O)(=O)c2ccccc2)CC1 (stereo not given)	11%[46.1 µM]	nt	-16%[46.1 µM]	nt	0%	3%	-3%	-4%
CCC1(C(=O)c2ccccc2)C2c3ccccc3OC(=O)C21C(C)=O (stereo not given)	-13%[46.1 µM]	nt	-9%[46.1 µM]	nt	0%	-5%	5%	3%
COc1cccc(CNC(=O)c2ccc(CSc3nc4ccncc4n3Cc3cccc(C)c3)cc2)c1	nt	-5.4%	?	-19%	nt	-14%	nt	nt
Remaining list, next part:
SMILES	LASV entry inh	Cruzain Triton	Marburg entry inh	Cruzain noTriton	SARS PLpro yeast	2A StopGo	NS1 function inh	RE007 growth inh
O=C1COc2ccc(S(=O)(=O)N3CCN(c4cccc(C(F)(F)F)c4)CC3)cc2N1	?	nt	-28%[46.1 µM]	nt	-2%	-6%	10%	6%
Cc1ccc(S(=O)(=O)N2CCN(C)CC2)cc1C(=O)NC1CCCCC1	-7%	nt	17%	nt	-4%	1%	6%	1%
CCc1ccc2c(c1)c(=O)c(C(=O)c1ccccc1)cn2CC(=O)Nc1ccc(C)c(Cl)c1	-5%[46.1 µM]	-0.6%	1%[46.1 µM]	-4%	nt	-5%	nt	nt
Cc1onc(-c2ccccc2)c1C(=O)NC(=S)NNC(=O)c1ccc(O)cc1O	2.5µM*	-0.4%	?	-7%	14µM*	-14%	28%	4%
CCOc1ccccc1NC(=O)c1cn(C2CCCCC2)c(=O)c2c1c1ccccc1n2C	?	-2.5%	0%[46.1 µM]	-6%	nt	-18%	nt	nt
Cc1ccsc1/C=N/Nc1nc(Cl)c(Cl)cc1Cl	?	1.4%	18%	?	1%	68%[activator]	-2%	0%
Cc1ccc(SCC(=O)Nc2nnc(C(C)(C)C)s2)cc1	-9%[46.1 µM]	nt	-15%[46.1 µM]	nt	1%	1%	1%	5%
COc1ccccc1N1CCN(C(c2ccccc2Cl)c2nnnn2C(C)(C)C)CC1 (stereo not given)	?	-5.1%	?	25%	nt	?	-32%	7%
O=c1[nH]c2ccccc2nc1-c1cccs1	2%	6.2%	13%	-7%	5%	12%	-4%	13%
COc1cc(OC)cc(C(=O)NC(C(=O)NCCN(C)C)C23CC4CC(CC(C4)C2)C3)c1 (stereo not given)	-14%	-9.7%	?	9%	-2%	0%	-1%	11%
CCc1ccc(NC(=O)/C(C#N)=C/c2cn(CC(=O)O)c3ccccc23)cc1	10%	nt	3%[46.1 µM]	nt	7%	1%	0%	2%
Cn1c(=O)c2cn(-c3cccc4ccccc34)cc2n(C)c1=O	-10%	-2.0%	17%	-9%	-9%	-16%	-5%	1%
Cc1cccc(C(C)C)c1NC(=O)c1ccc(CN(c2ccccc2)S(=O)(=O)c2ccccc2)cc1	-24%	3.1%	?	?	-4%	?	1%	15%
CCN(C(=O)COc1ccccc1C(=O)NCc1ccccc1)C1CCS(=O)(=O)C1 (stereo not given)	12%	nt	2%	nt	5%	5%	nt	-7%
CC(C)c1nc(Cl)c(C#N)c2c1CCCC2	-19%	-2.7%	11%[46.1 µM]	-9%	6%	-14%	4%	-4%
Cc1cccc(OCCC(=O)NCC(=O)Nc2c(C)cccc2C)c1	-15%	3.4%	?	7%	4%	-14%	-12%	0%
Cn1nc([N+](=O)[O-])nc1Oc1ccccc1	9%	1.7%	16%	9%	-10%	17%	9%	2%
COc1ccccc1NC(=O)Cc1ccsc1	7%[46.1 µM]	nt	5%[46.1 µM]	nt	-8%	-5%	-17%	-18%
COc1ccc2c(c1OC)C(=O)OC2Nc1nc(-c2cccc([N+](=O)[O-])c2)cs1 (stereo not given)	27%	nt	16%	nt	-6%	21%	-47%	-10%
COc1ccc2nc(NC(=O)CN3CCN(C)CC3)sc2c1	6%	3.6%	3%	-12%	-2%	23%	-55%	-14%
Cc1ccc2c(CNC3CCCC3)c(C(=O)O)n(Cc3ccc(F)cc3)c2c1	10%[46.1 µM]	-0.3%	nt	21%	nt	-6%	nt	nt
COC(=O)c1ccc(-c2cc(C(=O)O)c3cc4c(cc3n2)OCCO4)cc1	-2%	-9.9%	-8%	3%	4%	3%	-49%	11%
Cc1cc(NC(=O)c2cnn3cccnc23)no1	13%	4.1%	21%	-4%	9%	54%[activator]	13%	0%
O=C(/C=C/c1ccc2c(c1)OCO2)NCCSCc1c(Cl)cccc1Cl	-9%	3.5%	-26%	12%	-23%	0%	-5%	-6%
CC(C)[C@@H](NC(=O)OC(C)(C)C)C(=O)NCC1CCC(C(=O)N[C@@H](Cc2ccccc2)C(=O)O)CC1 (stereo not given in full)	22%	nt	15%	nt	2%	7%	0%	0%
Next part
SMILES	LASV entry inh	Cruzain Triton	Marburg entry inh	Cruzain noTriton	SARS PLpro yeast	2A StopGo	NS1 function inh	RE007 growth inh
O=C(COC(=O)CC1CC2CCC1C2)Nc1ccccc1[N+](=O)[O-] (stereo not given)	5%	nt	3%	nt	1%	10%	nt	-1%
COc1ccc(C2(c3ccc(OC)cc3)NC(=O)N(CC(=O)Nc3ccc(C(N)=O)cc3)C2=O)cc1	9%	nt	-13%[46.1 µM]	nt	18%	-11%	-20%	1%
O=C1CCCc2ccccc2N1Cc1ccc(F)cc1	nt	nt	nt	nt	-1%	-15%	-7%	-10%
Cc1cc(C)c2sc(N(CCN(C)C)C(=O)c3cc(Cl)sc3Cl)nc2c1	8%[46.1 µM]	nt	-5%[46.1 µM]	nt	-1%	-5%	nt	-11%
COc1cc(C)c(C)cc1S(=O)(=O)N1CCN(Cc2ccc3c(c2)OCO3)CC1	-6%	-0.3%	-1%	15%	4%	-22%	-15%	-7%
CCCCNC(=O)c1ccc(NC(C)=O)c(Cl)c1	13%	nt	4%[46.1 µM]	nt	0%	10%	1%	-21%
CC(C)c1nn2c(=O)cc(COC(=O)c3ccccc3NC(=O)C3CCCCC3)nc2s1	3%[46.1 µM]	-0.2%	nt	-15%	nt	15%	nt	nt
c1ccc(Cn2nnc3c(N4CCCCCC4)ncnc32)cc1	nt	-8.4%	nt	-7%	-14%	?	-130%	9%
CC(C)c1ccc(Nc2nc(NCc3ccco3)nc(N3CCOCC3)n2)cc1	?	-9.8%	?	7%	-23%	-12%	-55%	14%
CCOC(=O)C(C)n1cnc2scc(-c3ccc(C)c(C)c3)c2c1=O (stereo not given)	nt	nt	nt	nt	-21%	-12%	-125%	22%
CC1(OC(=O)CCc2ccccc2)C(=O)C=C2C=C(c3ccc(C#N)cc3)N(CCN3CCOCC3)C=C2C1=O (stereo not given)	nt	nt	nt	nt	1%	-19%	3%	-9%
Cc1ccc(-c2nc(C(=O)N3CCN(c4ccccc4)CC3)c3n2CCCCC3)cc1	5%[46.1 µM]	-2.4%	nt	9%	nt	-32%	nt	nt
CCN(c1ccc2c(c1)OCO2)S(=O)(=O)c1cc(Br)cc2c1N(C(C)=O)CC2	20%	0.2%	9%	?	-14%	-5%	2%	0%

Screens as filed in PubChem BioAssay.
